# Mtb MenB inh: blocks the Mycobacterium tuberculosis MenB enzyme | MenB enzyme assay, absorbance read-out; some hits fall short of the stated cut | inhibition, %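 (about 12 µg/mL by stock and volumes)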 | 0.43% of 100,000 active;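 active = mean of two replicates above 30%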;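 also: 0% = no compound and 100% = wells with inactive enzyme; the first replicate is given; strong numbers were not always called active; inactives centre near -10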
# MbtI inh: blocks the Mycobacterium tuberculosis siderophore enzyme MbtI; P9WFX0; 0.89% of 100,000 active; purified MbtI enzyme, fluorescence intensity read-out; inhibition, %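 (about 17 µg/mL by stock and volumes)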;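 active = above 50% in both replicates, above 80% if mildly self-fluorescent; inactive = the rest, strongly fluorescent compounds included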;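 also: 0% = mean of negative and 100% = mean of positive controls; one replicate is shown; some compounds called inactive have numbers as strong as hits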
# Target sequence (P9WFX0 whole entry, looked up): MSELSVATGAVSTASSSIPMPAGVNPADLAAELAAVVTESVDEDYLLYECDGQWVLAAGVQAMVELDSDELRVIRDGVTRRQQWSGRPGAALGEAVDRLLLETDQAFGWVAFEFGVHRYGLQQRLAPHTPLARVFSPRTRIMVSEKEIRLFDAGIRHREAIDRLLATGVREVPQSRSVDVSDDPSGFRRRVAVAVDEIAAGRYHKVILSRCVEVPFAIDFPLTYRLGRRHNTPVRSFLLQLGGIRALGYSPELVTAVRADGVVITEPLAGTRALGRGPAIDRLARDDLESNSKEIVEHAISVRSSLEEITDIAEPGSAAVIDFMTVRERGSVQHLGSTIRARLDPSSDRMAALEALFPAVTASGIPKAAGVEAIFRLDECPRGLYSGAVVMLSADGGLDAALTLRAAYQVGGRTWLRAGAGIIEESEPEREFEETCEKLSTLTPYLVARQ
# Polio RdRp inh: poliovirus RNA polymerase inhibition. P03300. poliovirus polymerase elongation, fluorescence polarization; active compounds read low. % elongation, % (compound at 16.7 µg/mL). 0.66% of 150,000 active; in the data active = % elongation below about 90%; also: some results filed as inactive read as strong as hits
# Target sequence (P03300 1749-2209 limits assumed): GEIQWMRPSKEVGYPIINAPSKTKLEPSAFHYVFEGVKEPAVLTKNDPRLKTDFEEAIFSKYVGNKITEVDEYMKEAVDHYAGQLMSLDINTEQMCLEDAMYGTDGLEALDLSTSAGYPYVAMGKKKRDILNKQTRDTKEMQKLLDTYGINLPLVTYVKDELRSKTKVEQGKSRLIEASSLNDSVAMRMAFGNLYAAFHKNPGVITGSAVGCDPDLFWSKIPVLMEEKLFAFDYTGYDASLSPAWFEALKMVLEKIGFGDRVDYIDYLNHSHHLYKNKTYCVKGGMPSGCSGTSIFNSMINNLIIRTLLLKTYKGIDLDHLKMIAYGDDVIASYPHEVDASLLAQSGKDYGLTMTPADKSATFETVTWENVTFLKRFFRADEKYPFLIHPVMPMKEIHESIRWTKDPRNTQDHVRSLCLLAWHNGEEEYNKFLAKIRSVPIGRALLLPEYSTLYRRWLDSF
# Polio RdRp inh intensity: further read-out of Polio RdRp inh, marked with its call; % elongation; measured here: total intensity read-out; formula for this scale not given here;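 total fluorescence in place of polarization; lower means less elongation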
# Starred values were filed as active, the others as inactive; . = no result given; & = joins results of further samples.
SMILES,Mtb MenB inh,MbtI inh,Polio RdRp inh,Polio RdRp inh intensity
Cc1noc(C)c1C(=O)O/N=C(\N)Cn1ccc(C(F)(F)F)n1,19,2,102,103
CCCCNS(=O)(=O)c1cnn(CC)c1,8,-6,101,105
COc1ccc(Cl)cc1C(=O)CSc1cc(C)c2ccccc2n1,-7,.,111,119
COC(=O)C(Cc1ccccc1)NC(=O)c1ccc(C#N)cc1 (stereo not given),2,-2,105,109
COc1ccc(OC)c(N=C(N)N=C(N)N)c1,5,2,100,100
COc1c(C=O)c(O)cc2c1C(=O)c1ccccc1C2=O,6,13,99&95,105&96
Cc1ccc(C)c(S(=O)(=O)n2nnc3ccccc32)c1,-23,-4,104,101
Cc1c(C)c(C)c(CSc2cccc(NC(=O)/C=C/C(=O)O)c2)c(C)c1C,5,-12,96,99
COc1ccc(OC)c(S(=O)(=O)c2cc3ccccc3oc2=O)c1,-9,11,102,105
COc1cccc(C(=O)Nc2cc(F)cc(F)c2)c1,-3,-17,101,101
O=C(Oc1ccc(Oc2ccccc2)cc1)N1CCC(OC(=O)n2ccnc2)CC1,-22,-2,107,100
CCN=C1SC(C(=O)Nc2ccc(OCC)cc2)CC(=O)N1CC (stereo not given),-13,-2,105,101
Cc1cccc(N2CCN(C(=O)C(Cc3ccccc3)NC(N)=O)CC2)c1C (stereo not given),-12,-14,101,108
COC(=O)N1c2ccccc2C=CC1C#N (stereo not given),-16,6,101,96
CCOC(=O)c1cnn(-c2ccccc2)c1NC(=O)Nc1ccccc1,0,4,104,106
O=C(Cn1cnc2c(nnn2Cc2ccccc2)c1=O)N1CCCC1,6,15,101,98
CC(=O)Nc1cccc(NC(=O)CCn2cnc3cc(C)c(C)cc32)c1,-1,-4,102,105
CCOC(=O)c1nc2c(o1)NC(N)=C(C#N)C2c1ccc(Cl)cc1 (stereo not given),-28,.,105,106
CN1CCN(S(=O)(=O)c2ccc(SCC(=O)NC3CCCCC3)cc2)CC1,-4,19,106,102
Cc1cc2nc(SCC(=O)NN)[nH]c2cc1C,-17,.,104,98
O=C(N/N=C1/CC(c2ccccc2)Oc2ccccc21)C1CC1 (stereo not given),-13,1,102,107
Cc1cc(C(=O)O/N=C(\N)c2ccccc2)nn1C(C)(C)C,1,-5,100,98
Cc1cc(C)c(C#N)c(SCCN2C(=O)c3ccccc3C2=O)n1,-11,1,105,105
O=C1CC2CCC(CN1)N2CC(=O)N1c2ccccc2Sc2ccc(C(F)(F)F)cc21 (stereo not given),-38,-7,101,103
CCN(c1cccc(C)c1)S(=O)(=O)c1ccc2c(c1)SC(C)C(=O)N2 (stereo not given),-5,-5,105,103
# The listing continues.
SMILES,Mtb MenB inh,MbtI inh,Polio RdRp inh,Polio RdRp inh intensity
c1ccc2c(c1)nc(Nc1ccc(N3CCCCC3)cc1)c1nncn12,5,9,102,104
FC(F)(F)c1cc(-c2nnc(N3CCOCC3)o2)cc(C(F)(F)F)c1,8,95,105,112
COc1ccc(OC)c(NC(=O)COc2ccccc2)c1,-3,.,105,106
Cc1cc(-c2csc(-c3ccc(O)cc3)n2)c(C)n1C1CC1,-10,-10,116,114
COc1cc2c(cc1OC)-c1cc3ccc(OC)c(OC)c3c[n+]1CC2,2&-13,1&-6,99&99,100&101
CC(C)NC(=O)Cn1cnc2ccccc2c1=O,-5,2,110,103
Cc1ccc(-c2cc(Cc3ccccc3)c(=O)[nH]n2)cc1,-10,-10,97,102
NC(=O)Nc1ccc(F)cc1F,-9,-5,100,101
CC(=O)Nc1ccc(F)cc1NC=C(C#N)C#N,6,-1,102,96
CCCCn1nc(C(=O)N/N=C/c2ccccc2OCC(=O)O)c2ccccc2c1=O,3,2,98,101
CC(C)Cc1cc(C(=O)Nc2cccnc2)no1,8,-14,101,104
Cc1c(O)ccc2c(=O)c(-c3ccc4ccccc4n3)coc12,.,-7,104,108
O=C(/C=C/c1ccco1)Nc1ccc2c(c1)C(=O)N(c1ccccc1)C2=O,-20,26,100,102
C=C1c2ccccc2N=C(SCC(=O)Nc2ccc(F)cc2F)N1C,-7,4,101,105
CCc1cccc(NC(=S)N(CCN(C)C)C2CCN(C(C)C)CC2)c1,-2,-14,102,105
CCCNS(=O)(=O)c1ccc(OCC(=O)N2CCCCC2)cc1,25,-2,101,103
Cc1ccccc1NC(=O)CCC(=O)Nc1ccccc1C,1,.,105,100
Cc1c(N=Nc2c(O)[nH]c(=S)[nH]c2=O)c(=O)n(-c2ccccc2)n1C,-318,33,118,118
COc1ccc2c(Cl)c(C(=O)Oc3ccccc3Cl)sc2c1,-10,.,101,102
CCC(C)C(=O)O[C@H]1C[C@H](O)C=C2C=C[C@H](C)[C@H](CC[C@@H](O)C[C@@H](O)CC(=O)O)C21 (stereo not given in full),3,-23,98,102
O=C(NC1CCCCCCC1)c1ccc(NC2=NC3CS(=O)(=O)CC3S2)cc1 (stereo not given),14,0,100,101
CN(Cc1ccccc1)Cc1ccccc1F,6,.,97,100
CC(C)Cn1c(=O)c2sccc2n2c(=S)sc(-c3ccccc3)c12,-11,68*,95,96
c1ccc2oc(NC3=NCN(CCCN4CCOCC4)CN3)nc2c1,-4,-7,102,102
CN(Cc1ccccc1)C(=O)COC(=O)c1cnc(Cl)c(Cl)c1,.,-9,101,103
# (list continues)
SMILES,Mtb MenB inh,MbtI inh,Polio RdRp inh,Polio RdRp inh intensity
CN(C)/C=C(\C(=S)c1ccccc1)c1ccccc1,-9,46,103,97
Nc1nnc(SCc2nc3scc(-c4ccc(Cl)cc4)c3c(=O)[nH]2)s1,-25,4,108,113
O=C(O)CCC(=O)c1ccc2c(c1)OCCCO2,-5,-5,100,103
CC(C)(C)C1CCC(OC(=O)CCC(=O)O)CC1 (stereo not given),4,-2,100,103
C/C(=N\OCC(=O)N1c2ccccc2CC1C)c1cc2ccccc2o1 (stereo not given),-34,-7,112,108
O=C(Cn1c(=O)c2cccn2c2ccc(F)cc21)N1CCN(C(=O)c2ccco2)CC1,-22,9,105,99
Cc1ccc2[nH]c3c(c2c1)CCCC3N1CCc2ccccc21 (stereo not given),-16,6,100,98
O=C(NCCc1ccco1)c1cn(-c2ccc(F)cc2)nn1,13,4,102,97
CCCS(=O)(=O)N1CCN(S(=O)(=O)CCC)CC1,22,-1,103,101
CCC1CCCCN1C(=O)Cn1c(C(=O)OC)cc2sc(Cl)cc21 (stereo not given),-20,-4,105,108
Cn1c(C(=O)N2CCCC(C(=O)O)C2)cc2sccc21 (stereo not given),-6,9,104,102
Cc1cc(COC(=O)c2cn(C)c3ccccc23)no1,-13,-10,107,112
NC(=O)c1cnn2c(C(F)(F)F)cc(-c3ccc(F)cc3)nc12,-11,.,101,98
O=C(CNC(=O)NC1CCCCC1)NC1CC1,3,-3,106,108
O=S(=O)(Cc1ccccc1)Nc1ccc(S(=O)(=O)N2CCCCC2)cc1,-3,-4,101,103
O=C(NCCc1cn2c(n1)SCC2)c1ccc(-c2ccccc2)cc1,-22,3,105,96
CCOC(=O)c1sc(N)c(C(=O)OCC)c1CNC(C)(C)C,-5,7,98,100
O=C(Cn1ccn(-c2ccccc2)c(=O)c1=O)NCCc1ccccc1,-22,0,104,101
Cc1cc(NC(=O)COc2ccc(Cl)cc2Cl)n(CCC#N)n1,.,-1,103,97
Cc1nn(-c2ccccc2Cl)c(Cl)c1/C=N/N=c1\sc2ccccc2n1C,-9,-19,103,106
CCC1CCCCN1C(=O)Nc1ccccc1 (stereo not given),-5,-12,99,103
CCN(C(=O)CSCc1ccco1)C1CCCCC1,.,4,103,104
CCC1CCCCN1C(=O)CSc1nc2c(cnn2-c2ccc(Cl)cc2)c(=O)[nH]1 (stereo not given),-9,-8,101,103
Cc1cc(C)cc(N(CC(=O)O)S(=O)(=O)c2c(C)n[nH]c2C)c1,-2,-2,101,98
Nc1nnc(SCC(=O)OCC(=O)N2CCCCC2)s1,-1,-6,102,105
# Going on with the list:
SMILES,Mtb MenB inh,MbtI inh,Polio RdRp inh,Polio RdRp inh intensity
Cc1nc(S(=O)(=O)N2CCN(C3c4ccccc4-c4ccccc43)CC2)cn1C,-6,-2,112,105
Cc1ccc(Cn2c(=O)n(Cc3ccccc3)c(=O)c3cccnc32)c(C)c1,-7,-4,103,104
Cn1c(Cc2cccs2)nnc1SCc1cc(=O)n2ccsc2n1,10,0,105,105
Cc1nc(Nc2ccccc2)sc1C(=O)Nc1ccccc1,10,-3,99,103
COC(=O)c1ccc(OC(=O)CCN2C(=O)c3ccccc3C2=O)cc1,2,1,101,106
CCc1ccc(NC(=O)CNc2ccc(C#N)cc2)cc1,-1,15,101,94
CCOc1ccccc1CN1CCC(N2CCCCC2)CC1,-17,1,103,103
CN(C)CCOC(=O)C1(c2ccccc2)CCCC1,-2,0,101,105
CCNc1nc(NCC)nc(NNC(=S)Nc2ccc(OCC)cc2)n1,-38,3,103,103
CCc1nnc(NC(=O)/C=C/c2cccs2)s1,-25,4,110,108
COc1cccc(Cc2nnc(-c3c(-c4ccccc4)noc3C)o2)c1,20,-11,107,109
Cc1cc(N2CCC(C(=O)N3CCOCC3)CC2)n2nc(C)c(-c3ccc(Cl)cc3)c2n1,-22,-27,102,106
O=S(=O)(c1ccccc1)N1CN(c2cccc(C(F)(F)F)c2)c2nc3ccccc3nc21,-9,-14,105,107
CC1(C)Oc2ccc3ccc(=O)oc3c2/C(=C/NC23CN4CN(CN(C4)C2)C3)C1=O,6,-4,100,101
CN(C)C(CNC(=O)c1n[nH]c2ccccc12)c1cccs1 (stereo not given),-8,68,105,108
Cc1cc(C)n(C(C)CC(=O)N2CCN(c3ccc(F)cc3)CC2)n1 (stereo not given),-22,-26,103,101
CC(C)=CC(=O)Nc1sc2c(c1C#N)CCCC2,-25,28,100,102
CN1C(=O)c2cccc3cccc(c23)[S+]1c1ccccc1C(=O)O (stereo not given),5,-8,97,98
Cn1cnnc1Sc1nc(CN2CCOCC2)nc2scc(-c3ccccc3)c12,-29,-3,105,110
COc1ccc(CCn2c(SCC#N)nc3ccccc3c2=O)cc1OC,-1,0,100,104
N#Cc1ccc(C(=O)NCCc2ccccn2)cc1,-2,-9,103,110
Cc1ccc(-n2cc[nH]c(=O)c2=O)cc1,-6,15,.,.
O=C(Nc1ccc(S(=O)(=O)N2CCCCC2)cc1)c1ccc(F)cc1,-14,-8,101,102
NC(=S)n1ncc(C(=O)O)c1NC(=O)c1ccccc1Cl,-104,-1,96,96
c1ccc(-c2nc3ccccn3c2NC2CCCC2)nc1,-12,-1,101,98
CCCn1c(C)cc(/C=C(\C#N)C(=O)N(C)Cc2ccc(Cl)c(Cl)c2)c1C,-4,-10,106,114
CCN(CC)CCCN1C(=O)C2C3C=CC(C3)C2C1=O (stereo not given),11,-6,100,102

# Three entries from above, field by field.
> O=S(=O)(c1ccccc1)N1CN(c2cccc(C(F)(F)F)c2)c2nc3ccccc3nc21
  Mtb MenB inh = -9
  MbtI inh = -14
  Polio RdRp inh = 105
  Polio RdRp inh intensity = 107

> COc1cccc(Cc2nnc(-c3c(-c4ccccc4)noc3C)o2)c1
  Mtb MenB inh = 20
  MbtI inh = -11
  Polio RdRp inh = 107
  Polio RdRp inh intensity = 109

> CCN(CC)CCCN1C(=O)C2C3C=CC(C3)C2C1=O (stereo not given)
  Mtb MenB inh = 11
  MbtI inh = -6
  Polio RdRp inh = 100
  Polio RdRp inh intensity = 102

# Grouped by structure, the compounds so far containing fluorine (14)
SMILES,Mtb MenB inh,MbtI inh,Polio RdRp inh,Polio RdRp inh intensity
Cc1noc(C)c1C(=O)O/N=C(\N)Cn1ccc(C(F)(F)F)n1,19,2,102,103
COc1cccc(C(=O)Nc2cc(F)cc(F)c2)c1,-3,-17,101,101
O=C1CC2CCC(CN1)N2CC(=O)N1c2ccccc2Sc2ccc(C(F)(F)F)cc21 (stereo not given),-38,-7,101,103
FC(F)(F)c1cc(-c2nnc(N3CCOCC3)o2)cc(C(F)(F)F)c1,8,95,105,112
NC(=O)Nc1ccc(F)cc1F,-9,-5,100,101
CC(=O)Nc1ccc(F)cc1NC=C(C#N)C#N,6,-1,102,96
C=C1c2ccccc2N=C(SCC(=O)Nc2ccc(F)cc2F)N1C,-7,4,101,105
CN(Cc1ccccc1)Cc1ccccc1F,6,.,97,100
O=C(Cn1c(=O)c2cccn2c2ccc(F)cc21)N1CCN(C(=O)c2ccco2)CC1,-22,9,105,99
O=C(NCCc1ccco1)c1cn(-c2ccc(F)cc2)nn1,13,4,102,97
NC(=O)c1cnn2c(C(F)(F)F)cc(-c3ccc(F)cc3)nc12,-11,.,101,98
O=S(=O)(c1ccccc1)N1CN(c2cccc(C(F)(F)F)c2)c2nc3ccccc3nc21,-9,-14,105,107
Cc1cc(C)n(C(C)CC(=O)N2CCN(c3ccc(F)cc3)CC2)n1 (stereo not given),-22,-26,103,101
O=C(Nc1ccc(S(=O)(=O)N2CCCCC2)cc1)c1ccc(F)cc1,-14,-8,101,102

# Screens: PubChem, ICCB-Longwood Screening Facility, Harvard Medical School
